# RanGTP-Impb inh: inhibitors of RanGTP-importin-beta interaction, primary screen, biochemical, FRET, CFP-Ran, YFP-importin-beta, homogeneous | cell-free CFP-Ran/YFP-importin-beta FRET ratio | inhibition, % (test concentration not listed) | actives 1.1% (n = 300,000);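 active means most replicates above 15%; inconclusive means exactly half above 15%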;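 further: 0% = DMSO wells and 100% = Ran loaded with GDP instead of GTP; wells of about 40 µL received 100 nL stock; the first replicate is given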
# AF4-AF9 inh: MLL-AF4/AF9 protein interaction inhibition; AlphaScreen, biotin-AF4 peptide binding to FLAG-AF9; P42568; actives 0.47% (n = 350,000); inhibition, % at 10 µM; AID 651704;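 active means every replicate reaching a set inhibition limit, whatever the replicate mean, cut at about 25% in these data; inconclusive means mean inhibition reaches that limit but some replicates miss it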;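 further: 0% = plate neutral control median and 100% = total signal loss; the record names both 10 and 1 µM as test concentration; the first replicate is given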
# Target sequence (P42568 whole entry, looked up): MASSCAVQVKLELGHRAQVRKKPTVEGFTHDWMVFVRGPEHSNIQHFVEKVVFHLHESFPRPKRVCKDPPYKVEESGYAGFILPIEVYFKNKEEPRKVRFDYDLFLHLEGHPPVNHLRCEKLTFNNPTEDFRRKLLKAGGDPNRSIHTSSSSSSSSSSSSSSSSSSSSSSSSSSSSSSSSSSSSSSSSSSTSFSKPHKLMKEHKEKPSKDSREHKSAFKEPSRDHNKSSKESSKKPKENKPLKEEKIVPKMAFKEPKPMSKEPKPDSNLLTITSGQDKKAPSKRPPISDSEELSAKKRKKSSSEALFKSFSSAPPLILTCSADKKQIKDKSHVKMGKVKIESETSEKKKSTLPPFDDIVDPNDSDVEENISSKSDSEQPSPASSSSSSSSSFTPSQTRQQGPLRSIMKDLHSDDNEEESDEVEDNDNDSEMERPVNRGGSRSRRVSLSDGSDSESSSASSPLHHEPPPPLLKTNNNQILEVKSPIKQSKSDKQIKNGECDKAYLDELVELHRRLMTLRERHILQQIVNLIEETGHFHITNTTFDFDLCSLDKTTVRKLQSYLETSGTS
# Ecoli rRNA inh: selective bacterial rRNA inhibition in E. coli; GFP signal change (wild-type ribosome), % (test concentration not listed); actives 1.6% (n = 350,000); E. coli WT GFP vs humanized-ribosome RFP mutants, fluorescence, 24 h; active compounds read low; DMSO median 0, no signal -100; AID 720706;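 active means significant combined selectivity score with lowered wild-type GFP, culture density cut under 30%, mutant RFP and density less affected; inactive means any of these conditions unmet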; further: one replicate is shown; some compounds called inactive have numbers as strong as hits
# Beta cell apopt: beta cell apoptosis inhibition; INS-1E cytokine-induced death, ATP luminescence, 48 h; percent of positive-control rescue, neutral wells zero; actives 0.8% (n = 300,000); AID 435005; protection from apoptosis, % (no concentration beside the values);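 active means all replicates at 75% or more, or half of them and the mean; inconclusive means half reach 75% but not the mean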;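 further: 0% = cytokine-treated negative control wells and 100% = positive control rescue; higher means more ATP so stronger rescue from cytokine killing; wells of about 40 µL received 100 nL stock; the first replicate is given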
# Calb FLC: C. albicans growth modulation with fluconazole; growth inhibition, % (concentration not given with the values); actives 0.57% (n = 300,000); AID 1979; C. albicans CaCi-2 (fluconazole-resistant clinical isolate) + fluconazole, Alamar Blue growth, 48 h;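 active means most replicates above 75%; inconclusive means exactly half above 75%; inactive means most below 75%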;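 further: all wells also contain fluconazole at 8 µg/ml as a sub-toxic cotreatment; 0% = median of DMSO wells and 100% = median of geldanamycin control wells; wells of about 8 µL received 7.5 nL stock; the first replicate is given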
# Vif TR-FRET: inhibitors of Vif binding to APOBEC3G peptide, primary screen, biochemical, TR-FRET, GST-Vif 1-94, biotin-A3G peptide, dose response retest (AID 1117319); TR-FRET GST-Vif / biotin-A3G peptide binding; higher % means a stronger effect; test concentration not given here; strong numbers were not always called active; inhibition, %, or IC50 in µM where a hit was titrated; actives 0.57% (n = 260,000);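 active means above the screen mean plus three standard deviations and confirmed in dose response; inconclusive means results disagree or hit not tested in dose response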;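 further: Vif residues 1-94 fused to GST binding biotinylated APOBEC3G peptide 110-148; 0% = full assay without inhibitor and 100% = GST in place of GST-Vif; retest series ran down from 100 µM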
# A1 inh: inhibitors of the anti-apoptotic protein A1, read as caspase activation. MEF A1-2A-BIM cells, Caspase-Glo 3/7 luminescence, 3 h; percent of clofoctol response, vehicle zero. caspase activation, % (concentration not given with the values). actives 0.066% (n = 330,000). AID 2462;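 active means over half of replicate activation scores above 10%, or exactly half above 10 with the replicate mean above 10; inconclusive means replicate mean below 10 yet half the replicates above 10; inactive means over half of replicates below 10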;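 further: wells of about 30 µL received 50 nL stock; many hits fall short of the cut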
# T cruzi inh: T. cruzi replication inhibition; actives 1.4% (n = 300,000); T. cruzi beta-gal in NIH3T3, luminescence, 90 h; inhibition, % (no concentration beside the values);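 active means mean inhibition across valid replicates above about 55%, limit read from the data; inconclusive means mean below that limit but half or more replicates reach it; inactive means mean below it, under half of replicates reach it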;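 further: signal also drops with host cell toxicity which is not excluded here; 0% = plate median of DMSO wells and 100% = zero luminescence signal; higher percent means less beta-gal luminescence so fewer parasites; stock transfer was 50 nL into about 50 µL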
# Ecoli rRNA inh OD600: also measured in Ecoli rRNA inh; calls as there; OD600 change, %; measured here: OD600 growth;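 optical density of the mix in the first replicate; 0 = DMSO median and -100 = no signal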
# Ecoli rRNA inh RFP: second read-out of Ecoli rRNA inh, no call of its own (marks repeat the call); RFP signal change, %; measured here: RFP humanized mutant strains;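 first replicate; 0 = DMSO median and -100 = no signal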
# An asterisk follows results filed as active; ? = inconclusive; . = not tested or not shown.
mol	RanGTP-Impb inh	AF4-AF9 inh	Ecoli rRNA inh	Ecoli rRNA inh OD600	Ecoli rRNA inh RFP	Beta cell apopt	Calb FLC	Vif TR-FRET	A1 inh	T cruzi inh
CC(C)NCCCOc1ccc(Cl)cc1Br	1.7	.	.	.	.	1	-5	3%	-1.0	34
COCC(=O)Nc1cc([N+](=O)[O-])ccc1OC	-3.2	.	.	.	.	-2	13	21%	-0.2	5
Cc1c(C(=O)N(C)C)c2ccc(Cl)cc2n1O	4.4	-0.5	7	11	8.8	-7	-26	-9%	1.0	-12
CCC(=O)Nc1ccc(NC(=O)CSc2nnnn2-c2ccc(OC)cc2)cc1	-0.5	-0.3	-3	13	3.6	.	-9	-2%	-0.3	48
CCOC(=O)CSc1nc2c(c(=O)[nH]c(=O)n2C)n1CCc1ccccc1	0.5	.	.	.	.	-7	1	7%	0.1	-3
CC1(C(=O)O)CCC(C(=O)NNC(=O)c2ccccc2Cl)C1(C)C (stereo unspecified)	-0.3	2.0	16	4	6.8	.	-2	.	1.6	-10
N#CCCN1CCN(S(=O)(=O)c2ccc(S(=O)(=O)N3CCCC3)cc2)CC1	6.1	-1.0	11	14	4.6	0	0	-3%	0.9	5
CC(=C\C(=O)O)/C(=C/c1ccc(C)o1)C(=O)O	5.0	-22	15	-3	11	-3	15	?	-0.1	-20
COCCn1cnc2c1c(=O)n(CC(=O)Nc1cc(C)on1)c(=O)n2Cc1ccccc1	-3.0	.	.	.	.	0	6	-8%	1.1	5
O=c1/c(=C/c2ccco2)sc2n1CN(c1cccc(Br)c1)CN=2	4.7	.	.	.	.	-6	-4	33%	1.2	1
O=C(Nc1nnc(C(F)(F)F)s1)c1c(F)cccc1F	-3.5	0.3	-8	-12	-3.5	.	43	.	-1.1	6
NC(=S)N/N=C/c1ccccc1[N+](=O)[O-]	3.1	0.5	7	4	1.0	-5	-9	15%	0.2	-9
CS(=O)(=O)N(CC(=O)N1CCCC1)c1ccc(Cl)cc1	4.5	0.8	8	11	1.2	-5	21	1%	-0.5	3
CCCN1CCC(=NNc2ccc(S(N)(=O)=O)cc2[N+](=O)[O-])CC1	0.6	3.9	8	0	-1.1	-5	4	9%	0.4	0
CN(C)/C=N/c1ncc(C(=O)c2ccc3ccccc3c2)s1	-0.5	.	.	.	.	2	14	-2%	-0.1	-8
COc1ccc(OC)c2sc(NC(=O)CCSc3ccccc3)nc12	6.2	-2.0	2	11	-1.3	4	3	-4%	0.0	26
COc1ccc(-n2c(NN)nc3sc4c(c3c2=O)CCCC4)cc1	5.9	0.0	-1	3	6.0	7	10	4%	-0.2	7
Cc1ccc2cc(C=O)c(N3CCOCC3)nc2c1C	0.1	1.0	6	4	6.1	-4	4	.	0.6	-7
CCc1nc(Nc2ccccc2O)c2oc3ccccc3c2n1	?	3.8	7	7	-1.1	-3	-7	-2%	-0.2	-9
CCOC(=O)C(NC(=O)c1ccc(OC)cc1)(N1CCOCC1)C(F)(F)F (stereo unspecified)	-1.7	.	.	.	.	-4	6	0%	-0.8	-17
COc1ccc(CNC(c2ccccc2)c2ccc(Cl)cc2)cc1 (stereo unspecified)	7.2	-9.1	-4	-19	-0.2	0	2	.	0.0	21
CC(C)C(=O)Nc1nnc(SCC(=O)NCc2ccco2)s1	2.8	.	.	.	.	-4	-3	.	-0.5	-17
Cc1cccc(C)c1NC(=O)N1C(C(=O)O)CSC1C(=O)O (stereo unspecified)	0.7	.	.	.	.	-3	-3	-1%	-0.1	-6
CC1CCC(NC(=O)CN2C(=O)NC3(CCCCC3C)C2=O)CC1 (stereo unspecified)	.	0.3	0	-2	-1.1	1	.	5%	-0.3	.
CCOC(=O)c1cn(CC)c2cc3c(cc2c1=O)OCO3	-1.3	-9.5	-38	-72	-11	-7	2	.	-0.3	-29
O=C(Nc1cc(Cl)ccc1O)C1CC(c2c(F)cccc2Cl)=NO1 (stereo unspecified)	4.6	-5.2	-52	-58	-13	-6	52	.	0.2	12
CC(=O)Oc1ccccc1C(=O)N1CCN(S(=O)(=O)c2ccc3ccccc3c2)CC1	1.6	-2.2	-2	-11	1.2	-2	0	-7%	0.3	-4
CC(C)c1cc(C(=O)NNC(=S)NC2CCCCC2)cs1	?	1.4	-1	-2	-1.8	2	-25	.	0.5	3
COC(=O)c1cc(C(=O)N2CCN(c3ccccc3OC)CC2)cc([N+](=O)[O-])c1	-3.4	1.0	3	0	-5.4	4	36	.	-0.1	-75
Cn1cccc1/C=N/NC(=O)c1cc2ccccc2cc1O	-6.9	-1.2	0	11	1.7	.	-25	.	-0.3	-5
Cc1ccc2c(c1)C1(C)C(C(C)(C)N2C=O)C1(Cl)Cl (stereo unspecified)	1.8	8.9	-12	-4	1.3	.	6	11%	1.0	0
CC(C)CCN(Cc1ccco1)S(=O)(=O)c1csc(C(N)=O)c1	3.4	6.3	-8	-20	-2.8	5	18	2%	0.3	6
COc1ccc(Cl)cc1NS(=O)(=O)c1ccc2c(c1)NC(=O)CCS2	5.3	-9.0	-39	-51	-6.5	-2	-8	.	-1.2	8
CN1CCN(c2ncnc3c2[nH]c2ccc(F)cc23)CC1	2.8	.	.	.	.	2	1	-2%	0.0	30
CC(C)CC(COCc1cccc(Cl)c1)N1CCN(C(=O)c2ccc(C(F)(F)F)cc2)CCC1=O (stereo unspecified)	-1.4	-5.9	-9	-10	-0.6	.	-8	?	3.0	28
COCCNC(=O)c1cc(-c2ccccc2)n(CC2CC(c3ccc(OC)cc3)=NO2)n1 (stereo unspecified)	-1.5	-1.0	-3	12	-8.4	0	-7	.	0.0	-9
CC(Oc1ccc(Cl)cc1)C(=O)NCCCn1ccnc1 (stereo unspecified)	-5.9	.	.	.	.	3	-9	5%	0.4	0
COC(=O)c1cccc(C(=O)N2CCCC(C(=O)c3cc(F)ccc3F)C2)c1 (stereo unspecified)	-1.5	6.4	-2	-8	-3.8	-2	6	3%	0.2	-4
CN(CC(=O)Nc1cccc2ccccc12)C(=O)/C=C/c1cccs1	2.7	.	.	.	.	0	-12	.	0.8	-8
N#CC1=C(N)N(c2ccc(Cl)c(Cl)c2)C(=O)C1	-0.8	0.1	-12	-4	16	-1	-40	-3%	0.0	-2
Cc1ccc(C(=O)C2=C(O)C(=O)N(Cc3cccnc3)C2c2ccc(Cl)c(Cl)c2)o1 (stereo unspecified)	-0.7	.	.	.	.	0	-7	4%	-1.2	-5
CC(C)OC(=O)C1C(=O)CC(C)(O)C(C(=O)OC(C)C)C1c1ccc(F)cc1 (stereo unspecified)	0.3	-29	6	5	6.6	-2	-7	1%	0.5	-11
O=C(C[n+]1cccc(/C=N/O)c1)N1CCCCCC1	-5.8	0.8	11	12	3.2	-1	-6	2%	0.0	-3
O=C(CN1C(=O)NC(CCc2ccccc2)C1=O)NC1CC1 (stereo unspecified)	2.7	-2.0	21	16	2.4	-1	43	.	0.3	-11
COc1ccc(S(=O)(=O)N2CCN(CC(O)COc3ccc(C#N)cc3)CC2)cc1OC (stereo unspecified)	?	0.7	3	1	-1.5	-6	-1	.	0.1	1
CC1C/C(=N/NC(=O)c2cccc(F)c2)c2ccc(O)cc2C1 (stereo unspecified)	2.1	.	.	.	.	2	6	12%	0.7	-6
CC(=O)Nc1ccc(S(=O)(=O)N2CCCC(C(=O)O)C2)cc1 (stereo unspecified)	0.0	-0.2	6	2	-1.0	-5	-2	-4%	-0.6	-4
O=C(NCCc1nnc2ccc(NCCCN3CCOCC3)nn12)c1ccccc1	-1.7	0.5	-2	-3	-0.5	.	1	.	0.4	0
CCOc1ccc(CNC(=O)c2cccc(NC(=O)C3=C(C)OCCS3)c2)cc1	-3.7	1.0	-3	-13	1.0	-2	48	.	-0.2	19
COc1cc(/C=N/NC(=O)c2ccc(COc3ccccc3Cl)o2)cc(Br)c1O	2.8	.	.	.	.	-5	32	9%	-0.2	-5

# Additional entries.
mol	RanGTP-Impb inh	AF4-AF9 inh	Ecoli rRNA inh	Ecoli rRNA inh OD600	Ecoli rRNA inh RFP	Beta cell apopt	Calb FLC	Vif TR-FRET	A1 inh	T cruzi inh
COc1ccccc1-n1c(=O)c2c3c(sc2n2c(SC(C)C)nnc12)CCC3	-1.8	.	.	.	.	11	25	0%	0.3	11
CCN(CCCNC(=O)c1c(C)cc(=O)oc1C)c1cccc(C)c1	-0.7	.	.	.	.	-1	8	2%	0.1	16
COCCOc1cc(N2C(=O)CSCC2=O)c(Cl)cc1Cl	7.4	9.3	11	4	1.9	-3	3	30%	-0.2	-14
O=C(/C(=N\Nc1ccccc1)Sc1nnnn1-c1ccccc1)c1ccccc1	?	.	.	.	.	-4	-7	-1%	1.1	-2
O=C(/C=C/Nc1ccccc1C(F)(F)F)c1ccco1	7.5	1.9	-22*	-16*	-3.9*	-8	-4	-1%	-4.1	10
O=C(c1ccc(OC2CCN(CCc3ccccc3)CC2)cc1)N1CCC(CO)CC1	?	-3.9	4	4	-1.1	2	-7	.	0.5	-4
CN(C1CCCC1)C1CCN(C(=S)Nc2cc(F)cc(F)c2)CC1	-3.3	-27	7	3	4.5	-7	-3	.	0.5	18
COC(=O)C1C(c2ccc(N(C)C)cc2)C(C(=O)OC)S(=O)(=O)CS1(=O)=O (stereo unspecified)	8.1	-0.7	12	3	0.6	-2	-32	?	0.3	-8
CCCCn1c(N)c(N(CCC(C)C)C(=O)CC2CCCC2)c(=O)[nH]c1=O	.	-1.0	12	12	4.3	-1	4	0%	-0.2	1
COc1ccc(CSc2nnc(-c3ccncc3)n2N)cc1	-3.1	0.2	-1	-2	-1.2	0	-5	-1%	0.6	-5
CC(C)NC(=O)C1CCN(c2ccc(S(=O)(=O)N3CCOCC3)cc2Cl)CC1	4.8	4.5	17	13	-8.6	4	3	.	0.1	28
Cc1ccccc1-n1ncc2c1CC(C)(C)CC2NC(=O)CN1CCCC1=O (stereo unspecified)	-1.5	-2.4	1	11	0.9	-5	3	.	0.7	5
CCC(C)[C@H](NC(=O)CCn1nnc2ccccc2c1=O)C(=O)O (stereo partly specified)	-0.2	.	.	.	.	-1	7	-7%	0.3	-9
COc1ccc(-n2c(C)c(C)c3c(NCCCN(C)C)ncnc32)cc1	?	9.8	7	6	-2.7	-2	-9	-3%	1.3	9

# Screening data as filed in PubChem BioAssay.

# An excerpt (hit frequency here may not be typical).
